# Source: PubChem BioAssay (National Center for Advancing Translational Sciences (NCATS))
# 2A firefly – FMDV 2A StopGo reporter, firefly signal | Potency, µM (titrated, usually from 57.5 µM), without a hit: top-dose signal change, negative = less light | AID 1745856 | HEK cells with a luciferase reporter of 2A StopGo recoding | 120,000 tested, 0.23% active; active = well fitted falling curve with a large enough effect; inconclusive = small, poorly fitted or top-dose-only effect; inactive = no such curve, though single readings can be large or run the other way; further: nearly all actives have a fitted effect of over 60% in size; overnight with compound
# 2A Renilla – FMDV 2A StopGo reporter, Renilla signal; HEK cells with a luciferase reporter of 2A StopGo recoding; Potency, µM (doses to about 57.5 µM), inactives show at the top dose signal change, negative = less light; 120,000 tested, 0.32% active; AID 1745857; active means well fitted falling curve with a large enough effect; inconclusive means small, poorly fitted or top-dose-only effect; inactive means no such curve, though single readings can be large or run the other way; further: nearly all actives have a fitted effect of over 55% in size; overnight with compound
# Numbers without * were called inactive; ? = inconclusive; & = joins results of further samples; [ ] = remark or other dose. On the % scale 0 is the no-effect control and ±100 the full control effect; potency means the concentration at half of the fitted maximal effect. Only part of the results is shown (hit frequency here may not be typical).
SMILES,2A firefly,2A Renilla
CCOC(=O)c1sc(NC(=O)c2nc3nc(C)cc(C(F)F)n3n2)c(C(=O)OC)c1C,-9%,-4%
Fc1ccc(Nc2nc(NC3CCCCCC3)nc3c2cnn3-c2ccccc2)cc1,10%,11%
COC(=O)COc1cc2occ(-c3csc(C)n3)c(=O)c2cc1C,-18%,0%
O=C(CCC1CCCCC1)Nc1cccc2c1CCCC2,3%,-2%
CCc1ccc(S(=O)(=O)Nc2ccc(-c3ccc(N4CCCC4)nn3)cc2)cc1,11%,35%
CC(=O)N(Cc1ccccc1)Cc1cc2ccccc2[nH]c1=O,-4%,-15%
O=C(c1ccc(F)cc1)c1ccccc1C(=O)N1CCN(C(=O)CCC2CCCC2)CC1,-17%,-2%
Cc1ccc(C(=O)/C=C/c2cccc(NC(=O)C(F)(F)F)c2)o1,25%,-5%
CCc1cc(=O)oc2cc(OC(C)C(=O)N(C(C)C)C(C)C)ccc12 (stereo not given),-3%,-4%
Cc1ccc2nc(NC(=O)CCc3ncc(-c4ccccc4Cl)o3)sc2c1,20%,-11%
NC(=O)c1ncn([C@@H]2O[C@H](CO)[C@@H](O)[C@H]2O)c1N,-12%,-5%
CC(NC(=O)C(=O)Nc1cc(Cl)ccc1Cl)c1ccc(S(N)(=O)=O)cc1 (stereo not given),-8%,-8%
O=C(NCC(c1ccco1)N1CCCCC1)c1cc(=O)c2ccccc2o1 (stereo not given),-4%,-4%
O=C(NCCN1CCN(C(=O)c2ccc(Cl)c(Cl)c2)CC1)c1ccc(Cl)c(Cl)c1,-12%,-8%
Cc1cc(S(=O)(=O)Nc2cccc3c2CCCC3)ccc1OCC(=O)O,-3%,21%
COc1ccc(C(=O)Nc2cc(C)nn2-c2nc(C)cc(C)n2)cc1,7%,3%
CCc1ccc(C(=O)Nc2cccc3ncccc23)cc1,22%,?
Cc1cccc(OCCn2nnc3sc4c(c3c2=O)CCCC4)c1,87%[activator],16%
Cc1ccc(C(=O)NCC(=O)NCCc2c[nH]c3ccccc23)cc1C,7%,18%
N#C/C(=C/c1ccccc1[N+](=O)[O-])c1ccc(C(F)(F)F)cn1,132%[activator],-11%
O=c1oc2ccccc2cc1-c1csc(Nc2ccccc2Cl)n1,122%[activator],7%
CN(C)S(=O)(=O)c1cccc(C(=O)N2CCCCC2C(=O)O)c1 (stereo not given),-6%,-6%
COc1cc(C2C(C(=O)Nc3ccccc3)=C(C)Nc3nc(CCCO)nn32)cc(OC)c1OC (stereo not given),-3%,1%
O=C(Nc1ccc(OCc2cccc(F)c2)c(Cl)c1)c1ccncc1,?,?
Cc1ccc(S(=O)(=O)N2CCN(Cc3noc(CCC(=O)N4CCCCC4)n3)CC2)c(C)c1,-12%,-7%
Cc1ccc(N2CCN(S(=O)(=O)c3ccc(Cl)c4ccccc34)CC2)c(C)c1,-11%,43%[activator]
O=C(COc1ccc(Br)cc1Cl)Nc1ncn[nH]1,106%&79%[activator],6%&-2%
O=C(C1CCC1)N1CCCc2cc(S(=O)(=O)N3CCN(c4ccccc4)CC3)ccc21,-25%,-14%
NC(CCc1ccccc1)c1ccccc1 (stereo not given),-2%,5%
COc1ccc2c(C)c(CC(=O)Nc3cccc(Cl)c3)c(=O)oc2c1C,-4%,-6%
Cc1ccccc1Cn1nc(C)c(NC(=O)c2cc(-c3ccc(F)cc3)on2)c1C,-13%,-8%
CCn1c(SCC(=O)NCc2ccc(CN3CCOCC3)cc2)nnc1-c1cccc(Cl)c1,9%,13%
Oc1c(C=Nc2ccc(F)c(Cl)c2)ccc2ccccc12,22%,12%
CCc1nn2c(=O)cc(COC(=O)c3cccc(NC(=O)c4ccccc4C)c3)nc2s1,5%,-9%
Cc1cc(C)c(NC(=O)c2cnc3ccccc3n2)c(C)c1,55%[activator],-7%
O=C(N=C1N(Cc2ccccc2)C[C@]2(C=C3CCCCC3n3c(=O)n(-c4ccccc4)c(=O)n32)N1C(=O)OCc1ccccc1)c1ccccc1 (stereo not given in full),13%,10%
O=C(Nc1ccccc1F)c1ccc2c(Cl)c3c(nc2c1)CCC3,-80%&-11%,?
Cc1ccccc1NS(=O)(=O)c1ccc(Br)s1,-10%,78%[activator]
COc1ccc2c(c1)c(C(=O)CN1CCCCC1)c(C)n2C,-11%,-15%
CCc1ccc(NC(=O)C2CCC(CNS(=O)(=O)c3ccc4c(c3)C(C)(C)C(=O)N4C)CC2)cc1 (stereo not given),-30%,-13%
CCOc1ccc(-c2nnc(SCC(=O)NCc3ccccc3)nc2-c2ccc(OCC)c(OC)c2)cc1OC,13%,57%[activator]
CCOc1ccc(CCNC(=O)c2csc3c2CCCCC3)cc1,-8%,-10%
CCc1ccc(C(=O)c2cn(CC(=O)NCCc3ccccc3)c3nc(C)ccc3c2=O)cc1,-6%,-10%
CCOc1ccc(NC(=O)c2cccc(CN3CCCC3=O)c2)cc1,73%[activator],-3%
CCn1c(=O)n(CC)c2cc(S(=O)(=O)c3ccccc3)c(NC(=O)c3c(F)cccc3F)cc21,30%[activator],133%[activator]
COc1ccc(/C=C/C(=O)c2ccc(-c3ccccc3)cc2)cc1,32%[activator],-11%
CCc1nc2ncc(C#N)c(N)n2n1,-2%,-3%
O=C(NCc1cccc(F)c1)C1CCCN(C(=O)N2CCOc3ccccc32)C1 (stereo not given),-21%,-15%
CCN1CCN(C(c2ccc(SC)cc2)c2c(O)cc(C)n(Cc3ccco3)c2=O)CC1 (stereo not given),-19%,5%
Cc1nc2sc(C)c(C)n2c(=O)c1S(=O)(=O)NCCc1ccc(Cl)cc1,-14%,-7%
# Next part.
SMILES,2A firefly,2A Renilla
N#C/C(=C\c1cn(Cc2cccc(F)c2)c2ccccc12)C(N)=O,43%[activator],50%[activator]
CCc1ccc(NC(=O)c2ccc3c(c2)c(C)c(C)n3Cc2ccccc2)cc1,42%[activator],37%[activator]
Cc1ccc2c(CN(C)CCOc3ccc(Br)cc3)cc(=O)oc2c1,35%[activator],18%
CCOc1ccc(NC(=O)N(Cc2ccc(CC)cc2)Cc2cn[nH]c2-c2ccc(OC)cc2)cc1,-20%,-13%
COc1ccc(NCc2cc3cc4c(cc3n(CC(=O)Nc3ccc(C)c(C)c3)c2=O)OCO4)cc1,7%,-2%
O=C(COCc1cc(-c2ccc3c(c2)OCO3)on1)N1CCN(c2cccc(Cl)c2)CC1,5%,-16%
Cc1ccc(NC(=O)C2=C(c3ccccc3)NC(=S)NC2c2ccc(Cl)cc2)cc1 (stereo not given),0%,28%
CCN(CC)CCCNC(=O)c1c2c(nc3ccccc13)C(=O)N(C1CCCCC1)C2,-14%,-2%
CC(C#N)OC(=O)c1ccc(CNC(=O)OC(C)(C)C)cc1 (stereo not given),7%,0%
CCCNS(=O)(=O)c1ccc(OCC(=O)NCc2cccnc2)cc1,9%,42%[activator]
O=C1Nc2ccccc2Oc2cc(Oc3cccc(Cl)c3)ccc21,0%,26%
CCn1cc(/C=C(\NC(=O)c2cc(OC)c(OC)c(OC)c2)C(=O)N2CCOCC2)c2ccccc21,9%,5%
CSc1ccc(Cl)c(C(=O)Nc2c(C)cc(C)cc2Cl)c1,33%[activator],59%[activator]
COc1ccc(/C=C2/CCn3c2nc2cc(Cl)ccc2c3=O)cc1O,14%,-1%
CCCOCc1cc(CN2CCN(c3ccccc3OC)CC2)c(O)c2ncccc12,0%,?
COC(=O)CNC(=O)c1ccc(CSC)cc1,?,?
Cc1ccc(C(=O)N2CCCCC2CCN2CCCCC2)cc1 (stereo not given),-12%,0%
COc1cccc(-c2cc(C(=O)N3CCN(C(=O)c4ccc(Br)o4)CC3)[nH]n2)c1,33%[activator],12%
Cc1ccc(C(=O)NC2CCCc3ccccc32)c(C)c1 (stereo not given),0%,213%[activator]
COc1ccc(C2=NN(C(=O)c3cccs3)C(c3ccc4nccnc4c3)C2)cc1OC (stereo not given),217%[activator],-1%
COC(=O)c1ccc(NC(=O)c2c(NCc3cccc(F)c3)sc3c2CCCC3)cc1,10%,-20%
Cc1noc(C)c1COc1ccc(C(=O)N2CCN(CC(=O)N3CCCC3)CC2)cc1,-1%,-11%
C[C@](N)(Cc1ccc(O)cc1)C(=O)O,-15%[5.23 µM],-3%[5.77 µM]
CCn1c(CCCOc2ccc(Cl)cc2C)n[nH]c1=S,26%,-8%
CCOC(=O)c1cc(C)n(CC2CCC(C(=O)Nc3ccc(Cl)cc3)CC2)c1C (stereo not given),?,-17%
Cc1ccc(NC(=O)C=C2CCCCC2)cc1,5%,17%
Cc1nnc(NC(=O)CSc2nccn2Cc2ccc(F)cc2)s1,-9%,-16%
CC1(C)CC(=O)C2=C(C1)OC(N)=C(C#N)C2c1cccc(O)c1 (stereo not given),-12%,1%[1.06 µM]
CCc1ccc(NC(=O)C2CCN(c3nc4ccccc4nc3OC)CC2)cc1,-11%,-14%
COc1ccc(-c2nc3c(c(SCC(=O)Nc4ccc(C(=O)O)cc4)n2)Cc2ccccc2O3)cc1,-9%,-17%
Cc1ccc(CN2C(=O)c3ccccc3S(=O)(=O)c3ccc(C(=O)OCC4CCCO4)cc32)cc1 (stereo not given),-7%,10%
Cc1cnc(C(=O)OCc2ccccc2Cl)cn1,8%,5%
Cc1ccc(C(=O)Nc2nnc(S(=O)(=O)N3CCCCCC3)s2)cc1,50%[activator],-10%
CCc1ccccc1NC(=O)c1cc2cccc(OC)c2oc1=O,7%,5%
CCCCn1c(=O)[nH]c(=O)c2c1nc(CCC(=O)N1CCCCC1C)n2CC(C)C (stereo not given),25%,24%
O=C(CCc1c[nH]c2ccccc12)NCCc1cccnc1,5%,-10%
Cc1nc(C2(NC(=O)CCn3c(=O)oc4ccccc43)CCCCC2)no1,-3%,-3%
COCCCNC(=O)C1CCN(c2nc3ccc(Cl)cc3[nH]2)CC1,9%,-11%
CS(=O)Cc1cccc(C(=O)Nc2nc(-c3ccccn3)cs2)c1 (stereo not given),100%[activator],7%
CC(=O)Nc1nonc1-c1nnc(SCc2ccccc2C)n1C,24%,-1%
Cc1c(C(=O)N(Cc2cccc(F)c2)C2CCS(=O)(=O)C2)oc2cc(Br)ccc12 (stereo not given),-12%,7%
O=C1CSC2(C(=O)Nc3ccccc32)N1c1cc(Cl)cc(Cl)c1 (stereo not given),-7%,12%
COc1ccc(C2c3c(-c4ccccc4O)n[nH]c3C(=O)N2CCCO)cc1OC (stereo not given),20%,8%
COc1cc(/C=C(/C#N)c2nc3ccccc3[nH]2)ccc1OCCc1ccccc1,123%[activator],-12%
COc1ccc(C)cc1Nc1nc2ccccc2nc1NS(=O)(=O)c1cccc2nsnc12,-6%,0%
CC(C)Nc1nc(C(=O)Nc2ccc(Cn3cncn3)cc2)cs1,89%[activator],23%
CC(=O)Nc1ccc(NC(=O)Nc2ccc(Cl)cc2)cc1,86%[activator],17%
COc1ccccc1N1CCN(CCCNC(=O)c2cnn(-c3cccc(Cl)c3)c2C2CCN(C(=O)OC(C)(C)C)CC2)CC1,-23%,-15%
O=C(CCCn1c(=O)c2ccccc2n(Cc2ccc(F)cc2Cl)c1=O)NCCc1ccc(Cl)cc1,-13%,-6%
CCc1ccc(NC(=O)CSc2nccn2-c2ccc(F)cc2)cc1,-2%,1%
# Next part.
SMILES,2A firefly,2A Renilla
CCOc1cc(/C=N/O)ccc1OCC(N)=O,14%,5%
CCc1cccc2c1N(C(=O)CCc1ncc(-c3c(F)cccc3F)o1)CC2,2%,2%
Cc1ccc(C)c(CSc2nc3c(cnn3CCO)c(=O)[nH]2)c1,39%[activator],29%
CCC(CC)C(=O)Nc1nnc(C2CC(=O)N(c3ccc(Cl)cc3)C2)s1 (stereo not given),-4%,-1%
CCCCC[C@H](O)C=C[C@H]1[C@H](O)CC(=O)[C@H]1CC=CCCCC(=O)O,-8%,-9%
COc1ccc(S(=O)(=O)N2CCN(C(=O)c3cn[nH]c3-c3ccccc3)CC2)cc1,8%,6%
CC(C)c1ccc(NC(=O)COC(=O)/C=C/c2cccc3cccnc23)cc1,20%,-14%
N#Cc1nc(-c2ccccc2)oc1N1CCN(c2ccccc2)CC1,7%,-1%
O=C(c1nc(-c2ccncc2)no1)N1CCN(c2ccc(F)cc2)CC1,11%,-1%

# 14 consecutive records already listed, quoted:
SMILES,2A firefly,2A Renilla
COc1ccc(C)cc1Nc1nc2ccccc2nc1NS(=O)(=O)c1cccc2nsnc12,-6%,0%
CC(C)Nc1nc(C(=O)Nc2ccc(Cn3cncn3)cc2)cs1,89%[activator],23%
CC(=O)Nc1ccc(NC(=O)Nc2ccc(Cl)cc2)cc1,86%[activator],17%
COc1ccccc1N1CCN(CCCNC(=O)c2cnn(-c3cccc(Cl)c3)c2C2CCN(C(=O)OC(C)(C)C)CC2)CC1,-23%,-15%
O=C(CCCn1c(=O)c2ccccc2n(Cc2ccc(F)cc2Cl)c1=O)NCCc1ccc(Cl)cc1,-13%,-6%
CCc1ccc(NC(=O)CSc2nccn2-c2ccc(F)cc2)cc1,-2%,1%
CCOc1cc(/C=N/O)ccc1OCC(N)=O,14%,5%
CCc1cccc2c1N(C(=O)CCc1ncc(-c3c(F)cccc3F)o1)CC2,2%,2%
Cc1ccc(C)c(CSc2nc3c(cnn3CCO)c(=O)[nH]2)c1,39%[activator],29%
CCC(CC)C(=O)Nc1nnc(C2CC(=O)N(c3ccc(Cl)cc3)C2)s1 (stereo not given),-4%,-1%
CCCCC[C@H](O)C=C[C@H]1[C@H](O)CC(=O)[C@H]1CC=CCCCC(=O)O,-8%,-9%
COc1ccc(S(=O)(=O)N2CCN(C(=O)c3cn[nH]c3-c3ccccc3)CC2)cc1,8%,6%
CC(C)c1ccc(NC(=O)COC(=O)/C=C/c2cccc3cccnc23)cc1,20%,-14%
N#Cc1nc(-c2ccccc2)oc1N1CCN(c2ccccc2)CC1,7%,-1%
